GIV Gai3 FP: GIV-Galpha-i interaction inhibition; 0.42% of 210,000 active; AID 1224905; Galpha-i3/FITC-GIV peptide fluorescence polarization, 90 min; hits give low values; scaled: aluminum fluoride 0%, vehicle 100%; percent of control (FP), % (no concentration beside the values);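 active = replicate mean at 85% of control or lower, very high polarization wells dropped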;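 also: wells of about 15 µL received 100 nL stock; the first replicate is given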
Target sequence (P08753 whole entry, looked up): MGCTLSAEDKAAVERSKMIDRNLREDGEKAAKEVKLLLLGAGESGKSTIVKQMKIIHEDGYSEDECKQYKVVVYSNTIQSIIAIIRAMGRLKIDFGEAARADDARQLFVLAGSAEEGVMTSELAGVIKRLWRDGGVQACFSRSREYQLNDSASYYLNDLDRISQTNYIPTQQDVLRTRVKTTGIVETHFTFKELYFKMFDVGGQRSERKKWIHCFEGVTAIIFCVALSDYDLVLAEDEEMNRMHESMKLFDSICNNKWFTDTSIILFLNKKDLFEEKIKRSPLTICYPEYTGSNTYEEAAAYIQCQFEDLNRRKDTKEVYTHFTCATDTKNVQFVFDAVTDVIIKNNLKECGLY
Sa growth 42C: S. aureus growth inhibition; S. aureus RN4220 growth, OD600, 20 h, 42 °C; hits give low values; 0.53% of 170,000 active; relative growth, % (test concentration not listed);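 active = growth at 42 °C up to 50% and 20 or more points under that at 30 °C, or under 10% at both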;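 also: 300 nL library stock went into each well; scaled to the means of positive and negative controls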
HCMV NEC inh: disrupts HCMV UL50-UL53 complex binding | AID 1918969 | inhibition, % (test concentration not listed) | 0.15% of 190,000 active | HTRF UL50-UL53 interaction, normalized percent inhibition;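 active = both replicates at 50% or more, plus weaker picks with an unusually low signal ratio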;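 also: stock transfer was 100 nL into about 20 µL; 0% = negative control wells and 100% = wells with untagged competitor protein; inactives centre near -12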
Sa growth 42C second temp: recorded beside Sa growth 42C, whose call it bears; relative growth, %; measured here: growth at 30 °C;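 optical density after 20 h as mean of two plates; 100% = untreated growth and lower means inhibition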
* = called active by the depositor; · = no result given; & = joins results of further samples. Hits appear at their usual frequency; 0.83% or so of the library scored in one or more.

SMILES	GIV Gai3 FP	Sa growth 42C	Sa growth 42C second temp	HCMV NEC inh
c1ccc(-c2nc3nc4ccccc4n3[nH]2)cc1	102	88	80	-12
O=C(NCC(c1ccco1)N1CCCCC1)c1cccs1 (stereo unspecified)	·	95	92	-13
COC(=O)c1cc(COC(=O)c2ccc3[nH]c4c(c3c2)CCCC4)oc1C	·	104	97	-20
Cc1ccc(-n2nc(N3CCN(C(=O)c4cnccn4)CC3)ccc2=O)cc1	106	·	·	-22
Cc1nn2c(CN(C(=O)c3ccccc3)c3ccccc3)nnc2c2ccccc12	98	93	87	·
O=C1CCCN1CCc1ccccn1	·	84	96	2
Cc1cccc(-c2cc(Nc3cccc(C(=O)NCC(C)C)c3)ncn2)c1	105	·	·	-31
O=C(Nc1ccc(Br)cc1)C12CC3CC(CC(C3)C1)C2	106	77	95	·
O=S(=O)(c1ccc(Cl)cc1)N1CCC2(CC1)Nc1ccccc1-n1cccc12	103	·	·	-7
CN(C)c1ccc(-c2noc(C3CCCC3)n2)cc1	116	·	·	-29
C=CCN=C(Cc1ccccc1)C1=C(O)CC(C)(C)CC1=O	·	101	80	-36
NNC(=O)CSc1nc(-c2ccccc2)nc2c1CCCC2	103	125	74	·
COc1ccc(-n2c(C)cc(CNS(=O)(=O)c3cc(OC)ccc3OC)c2C)cc1	114	·	·	-19
COc1ccc(-n2nnc(-c3nc(-c4cccs4)no3)c2N)cc1OC	106	93	74	·
Cc1ccc(OCC(O)CN2C(=O)NC(C)(C)C2=O)cc1 (stereo unspecified)	107	103	100	·
CCOC(=O)c1ccc(-n2ccnc2)c(NC(=O)c2ccccc2)c1	·	116	88	-14
COc1ccc(N(Cc2cccs2)C(=O)COc2ccc(C(C)C)cc2)cc1	104	83	83	-21
CCC(=O)Nc1ccc2oc(-c3ccccc3Br)nc2c1	99	90	80	-12
O=C(CONC(=O)C12CC3CC(CC(C3)C1)C2)N1CCc2ccccc21	·	97	98	0
O=C(CN1C(=O)C2(SCC(=O)N2c2ccccc2)c2ccccc21)NCCc1ccccc1 (stereo unspecified)	104	116	98	·
O=C1[C@@H]2CCCN2[C@@H](c2ccccc2)N1c1nccs1	106	·	·	3
CCOP(C)(=O)C1(C#N)CC1 (stereo unspecified)	·	92	91	4
CN1CCc2nc(SCc3cccc(C(F)(F)F)c3)c(C#N)cc2C1	107	87	61	·
CCCn1c2ccccc2c2nnc(SCC(=O)NCc3ccc4c(c3)OCO4)nc21	·	95	73	-30
CCC(=O)c1ccccc1OCCCSc1ncccn1	94	97	93	-3

An excerpt taken from the entries so far, as a working copy:
SMILES	GIV Gai3 FP	Sa growth 42C	Sa growth 42C second temp	HCMV NEC inh
O=C1CCCN1CCc1ccccn1	·	84	96	2
Cc1cccc(-c2cc(Nc3cccc(C(=O)NCC(C)C)c3)ncn2)c1	105	·	·	-31
O=C(Nc1ccc(Br)cc1)C12CC3CC(CC(C3)C1)C2	106	77	95	·
O=S(=O)(c1ccc(Cl)cc1)N1CCC2(CC1)Nc1ccccc1-n1cccc12	103	·	·	-7

Further compounds:
SMILES	GIV Gai3 FP	Sa growth 42C	Sa growth 42C second temp	HCMV NEC inh
Cc1cccc(-n2c(SCc3nc(-c4ccccc4C)no3)nnc2-c2ccccc2)c1	98	115	86	-38
CC(C)c1cc(C(=O)NCc2ccc(F)cc2)no1	97	93	94	-17
CCC(=O)N1CCCC1c1nc2ccccc2n1CCOc1cccc(OC)c1 (stereo unspecified)	101	·	·	-20
O=S1(=O)N=C(N2CCCC2)c2ccccc21	101	·	·	-23
CCCCNC(=O)CC1N=C2c3ccccc3N=C(SCC(=O)Nc3ccccc3OC)N2C1=O (stereo unspecified)	101	94	88	-11
O=C(O)c1ccc(CSC2CCCCC2)cc1	94	104	77	·
CCN(CC)S(=O)(=O)c1ccc(/C=C/C(=O)Nc2ccccc2C)cc1	·	90	80	-28
CCCCc1nn2c(=O)cc(COC(=O)c3ccccc3NC(=O)C(C)(C)C)nc2s1	107	83	96	·
COc1cc(/C=C2\SC(=S)N(CC(=O)Nc3nc4ccccc4s3)C2=O)cc(OC)c1OC	102	·	·	-35
CCN1CCN(c2nc3ncn(CC(=O)Nc4ccc(F)cc4F)c(=O)c3s2)CC1	105	·	·	-20
Cc1cc(F)ccc1NC(=O)Cn1c(=O)ccc2cc(S(=O)(=O)N3CCC(C)CC3)ccc21	101	107	91	·
Cc1c(C)c2cc3c(c(C)c2oc1=O)OCN(CCc1ccccc1)C3	100	99	85	-9
Brc1[nH]nc2ccccc12	·	78	89	-11
Cc1ccccc1NC(=O)CN1C(=O)CCn2nc(-c3cccn3C)cc21	107	88	92	·
CC(NC(=O)c1ccccc1)c1cccs1 (stereo unspecified)	·	94	81	-6
O=C(Nc1ccc(Cl)c(Cl)c1)C1C2CC/C=C\CCC21 (stereo unspecified)	·	94	92	0
CCSc1nnc(-c2cccc(S(=O)(=O)N(CC)CC)c2)n1N	·	79	90	-18
CCOCCc1nn2c(=O)cc(COC(=O)CNC(=O)c3ccc(F)cc3)nc2s1	104	98	91	·
O=C1CSC(c2ccco2)N1Cc1ccccc1 (stereo unspecified)	·	105	101	-14
Brc1ccc(-c2ccc(CNc3ncn[nH]3)o2)cc1	104	·	·	3
CC(C)COc1ccc(/C(=N\O)c2ccccc2)cc1	104	66	79	4
Cn1cc(C2=C(c3ccc(Cl)cc3Cl)C(=O)NC2=O)c2ccccc21	219	·	·	-8&-20&-20&-13&-26&-18
O=C(CSc1nc(C(F)(F)F)cc(=O)[nH]1)c1ccc(Cl)cc1	96	101	47	4
COc1cccc(CNc2nc3ccc(C)cc3n3cnnc23)c1	103	99	91	0
N#C/C(=C\c1ccccc1)C(=O)N1CCCC1	·	74	87	-6
CCOC(=O)c1sc(N)c(C#N)c1COC(=O)c1c(C)nn(-c2ccccc2)c1Cl	·	62	94	-16
CC1(C)C=C(c2ccc(C3=CC(C)(C)NC(C)(C)C3)s2)CC(C)(C)N1	113	98	86	·
Cc1ccc(-c2ccc(CCC(=O)O)n2-c2cccc(C)c2C)cc1	104	63	54	-37
Fc1ccc(Oc2ncccn2)c(Cl)c1	·	92	99	-4
CC(C)(C)C(=O)OCC(=O)Nc1ccccc1	·	124	92	-23
O=C(NCC1CCCCC1)c1ccc(=O)n(Cc2ccccc2)n1	·	108	94	-6
COc1ccc(S(=O)(=O)c2cn(C)c3cc(N4CCCC4)c(F)cc3c2=O)cc1	109	109	95	·
CCOC(=O)c1[nH]c2ccc(OC)cc2c1NC(=O)CN1CCOCC1	105	·	·	-18
CN(C)c1ccc(Nc2cc(-c3ccccc3)nc3nc(-c4cccnc4)nn23)cc1	102	·	·	-13
Cc1nn(-c2ccccc2)c(Cl)c1CN1CCN(Cc2ccc3c(c2)OCO3)CC1	·	117	91	-22
CCc1ccccc1Nc1nn2c(=O)c3ccc(C(=O)NCc4ccccc4Cl)cc3nc2s1	105	87	78	·
Cc1ccc(/C=C/c2onc(C)c2S(=O)(=O)N2CCCC(C(=O)Nc3cccnc3)C2)cc1 (stereo unspecified)	100	·	·	-25
O=C(Nc1ccc(-c2noc(-c3cccs3)n2)cc1)c1cccnc1	·	70	78	-4
COc1cccc(-n2c(SCc3ccccc3C)nc3c([nH]c4ccccc43)c2=O)c1	102	103	86	·
Cc1c(C(=O)NN)nn(-c2ccc(C(C)(C)C)cc2)c(=O)c1C#N	105	96	69	-251
CCc1ccccc1NC(=O)CSc1ncc(S(=O)(=O)c2ccccc2)c(N)n1	99	79	91	·
CC(=O)N1c2ccc(S(=O)(=O)NCC3CCC(C(=O)Nc4cccc(F)c4)CC3)cc2CC1C (stereo unspecified)	100	108	88	·
COc1ccc(Cl)cc1S(=O)(=O)n1ccnc1C(C)C	105	86	84	1
O=C1NC(=S)N/C1=C/c1ccc(OCc2ccccc2)c(Br)c1	112	·	·	-18
Nc1nc(Nc2ccccc2)sc1C(=O)c1ccc(Cl)cc1	98	·	·	-7
O=C(NCc1ccccn1)C1CCN(C(=O)c2cnn(-c3ccccc3)c2-n2cccc2)CC1	103	90	81	-10
CCOc1ccc(CCNC(=O)c2ccc3c(=O)n4c(nc3c2)CCCCC4)cc1	107	113	65	·
CN(C)/C=N/NC(=O)Cc1csc2nc(-c3ccccc3)nn12	104	98	90	-7
c1ccc(Oc2ccc(-c3cc(N4CCOCC4)n[nH]3)cc2)cc1	100	81	52	1
CCc1cccc2c(C#N)cn(CC(=O)NCc3ccco3)c12	·	95	90	-10

Next results follow.
SMILES	GIV Gai3 FP	Sa growth 42C	Sa growth 42C second temp	HCMV NEC inh
CN(C)/C=C(\C#N)C(=O)N=C1CCCN1C	105	94	93	-9
C=CCc1cccc2cc(C(=O)NCCc3c(C)[nH]c4c(C)cccc34)c(=O)oc12	107	116	93	-32
O=C(O)CCn1ccc2cc(S(=O)(=O)N3CCCCCC3)ccc21	101	112	86	0
COc1cccc(NCc2ccc(OC)c(Cn3ccnc3)c2)c1	102	83	73	-27
O=C1Nc2ccccc2/C1=C\c1ccco1	108	108	96	-26
Cc1ccc(-c2csc(=Nc3cccnc3)n2CCCN2CCCC2=O)cc1C	·	96	91	-30
COc1ccc(-c2cc(C(F)(F)F)n3nc(N)nc3n2)cc1	100	90	83	·
O=C(COc1ccccc1)NCCc1csc(-c2ccc(F)cc2)n1	105	103	87	·
CCCc1cnc(N2CCN(C(=S)NC)CC2)nc1	99	90	86	1
CSc1nc2ccc(S(=O)(=O)N3CCCCC3)cc2s1	97	97	84	-17
CCOC(=O)c1c(C)n(-c2ccccc2)c2c1cc(OC(=O)C1CCCCC1)c1ccccc12	107	·	·	-17
CCc1cccc(C)c1NC(=O)C1CCN(S(=O)(=O)c2cccc3nonc23)CC1	107	120	88	-82
Cc1nc2ccc(S(=O)(=O)NC(C(=O)Nc3nc4ccc(Cl)cc4s3)C(C)C)cc2s1 (stereo unspecified)	107	99	98	·
c1ccc(N2CCN(Cc3nnc(-c4ccc5c(c4)OCO5)o3)CC2)cc1	104	112	94	-7
COc1ccc(-c2nn3c(-c4ccc(OC)cc4)nnc3c3ccccc23)cc1	107	91	89	-19
CCSc1nnc2c(n1)OC(C1CC=C(C)CC1)Nc1ccccc1-2 (stereo unspecified)	104	·	·	-26
Cc1ccc(N2CC(NC(=O)C(=O)c3c[nH]c4ccccc34)CC2=O)cc1 (stereo unspecified)	95	118	89	·
Cc1ccc(CNC(=O)c2cc(-c3ccc(C)c(C)c3)nc3ccccc23)cc1	103	131	88	·
O=C1/C(=C/c2ccc(-c3ccc(Br)cc3)o2)Sc2ccccc21	126	·	·	-19
Cn1c(=O)nc2n(-c3ccc(Br)cc3)c3cccc(Cl)c3cc-2c1=O	102	103	85	-22
CCn1c(=NC(=O)c2ccc(S(=O)(=O)N3CCCCC3)cc2)sc2cccc(OC)c21	103	95	93	-1
CCCC(=O)N=c1sc2c(OC)ccc(OC)c2n1C	99	89	88	-42
CC(C)N(CCC#N)C(=O)Nc1ccccc1	104	94	89	-39
Cc1ccc(C(=O)Nc2ccc(CN3CCS(=O)(=O)CC3)cc2)cc1C	103	87	87	-29
CCCCn1nnc2c(=O)oc3ccccc3c21	102	102	89	·
CC(C)C(NC(=O)c1ccccc1)C(=O)OCc1cc(=O)n2ccsc2n1 (stereo unspecified)	·	92	87	-12
Cn1c(C(=O)Nc2ccc(OC(F)(F)F)cc2)cc2c(=O)n3ccccc3nc21	98	92	88	-12
Clc1ccc2nc(-c3ccco3)cc(-c3ccccc3)c2c1	113	63	55	·
CCNCC(=O)Nc1cc(C(F)(F)F)ccc1OCCOC	·	102	94	11
Cc1csc(=NC2CCCCC2)n1/N=C/c1ccc(O)c(O)c1O	·	52	51	-16
O=C(c1cc2ccccc2c(=O)o1)N1CCCCCC1	·	91	94	2
CCOC(=O)c1cn(Cc2ccc(Cl)cc2)c2nc(C)ccc2c1=O	109	·	·	-7
CCOC(=O)CSc1nc(-c2ccc(C)cc2C)cc(-c2ccccc2)c1C#N	107	98	89	-21
COc1ccc(S(=O)(=O)N2CCCC(C(=O)NC3CC3)C2)cc1OC (stereo unspecified)	103	115	91	-10
CC(=O)Nc1cc2c(C)cc(=O)oc2c2c1OCC2=O	·	106	95	-5
O=C(Oc1c(-c2ccccc2)c(=O)n2c3c(cccc13)CC2)c1ccco1	120	103	90	-2
Cc1csc(-c2cn(C(C)C)c(=O)n(Cc3ccccc3)c2=O)n1	104	81	80	-42
Cc1cc(C(=O)CSc2nnc(N)s2)c(C)n1-c1c(C)n(C)n(-c2ccccc2)c1=O	·	118	110	-3

Single entries from the results shown:
Entry of Cc1csc(-c2cn(C(C)C)c(=O)n(Cc3ccccc3)c2=O)n1 in Sa growth 42C second temp: 80
Entry of CCNCC(=O)Nc1cc(C(F)(F)F)ccc1OCCOC in HCMV NEC inh: 11

Assay outcomes deposited in PubChem by ICCB-Longwood Screening Facility, Harvard Medical School.
